Compound activity from PubChem BioAssay.
TRPML1 inh = human mucolipin-1 channel inhibition | TRPML1-inducible cells, Ca2+ dye fluorescence, FDSS; hits give low values; inhibition of EC80 agonist-evoked calcium signal | activity change, negative = inhibition, % (concentration not given with the values) | Q9GZU1 | 390,000 compounds, 0.02% hits | AID 624415; in the data active means activity change below about -50%; inconclusive means about -30% to -50%; inactive means above about -30%;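 also: stimulus is agonist 54-4 at its EC80 concentration; % is scaled to controls: 0 for no effect and ±100 for the full control effect; the text of the record puts the active cut at -80%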
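Tet-induced TRPML1-DL cells loaded with Ca8 no-wash calcium dye were read kinetically on FDSS. Compound addition was followed by EC80 agonist 54-4 (4 uM final); inhibition was read over 110 s.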
PINK1 expr mod = modulators of PINK1 expression | PINK1 immunofluorescence, high-content cytometry, 24 h | Potency, µM (top dose mostly 76.6 µM), for the others: top-dose activation (PINK1 increase), hits mostly activators | 410,000 compounds, 0.2% hits | AID 624263; active = well fitted activation curve with a large enough effect; inconclusive = small, poorly fitted or top-dose-only effect; inactive = flat fitted curve, though single readings scatter; cell line not stated here;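 also: potency is read from the fitted curve at half-maximal effect; % of control where 0% means no effect; nearly all actives have a fitted effect of over 65% in size; a mitochondrial uncoupler was the plate control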
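A stable cell line was treated with compounds at 5 concentrations for 24 hours, with CCCP as control. PINK1 levels and mitochondrial localization were measured by immunofluorescence with mitochondrial, cell and nuclear markers after fixation, read by laser-scanning cytometry.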
CtBP-E1A inh = CtBP/E1A binding inhibition | AlphaScreen GST-E1A/His-CtBP binding, 1536-well; hits give low values; control for the full effect not named in the record | activity change, % (no concentration beside the values) | 340,000 compounds, 0.49% hits; in the data active means activity change below about -65%; inconclusive means about -30% to -65%; inactive means above about -30%; also: % is scaled to controls: 0 for no effect and ±100 for the full control effect
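Protein mix (5X: 125 nM each GST-E1A, His-CtBP) was incubated with pinned compound 2 h at 37 deg C in dark, in 50 mM Tris pH 8.0 buffer with 300 mM NaCl. Glutathione donor and nickel acceptor beads followed; AlphaScreen signal read after 1 h.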
D2 ag = agonists of human D2 dopamine receptor (beta-arrestin). P14416. DiscoveRx PathHunter D2 beta-arrestin, luminescence, 90 min; 100% = 57 uM dopamine signal. activation, % (concentration not given with the values). 360,000 compounds, 0.084% hits. AID 624465; in the data active = activation above about 40%; inconclusive = about 15% to 40%; inactive = below about 15%; also: the text of the record calls up to 30% inactive
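Agonist mode: compounds alone added to overnight-plated D2 PathHunter cells for 90 min at 37 C, with 57 uM final dopamine (EC100) defining full response. Beta-arrestin recruitment detected by chemiluminescent reagent, read after 1 h at ambient temperature.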
TRPML1 agonist = agonists of human TRPML1 channel. 410,000 compounds, 0.12% hits. TRPML1-expressing cells, Ca2+ dye fluorescence, FDSS; host cell line not named in the record; reference of the full effect not given here. Q9GZU1. activation, % (no concentration beside the values); in the data active = activation above about 50%; inconclusive = about 30% to 50%; inactive = below about 30%; also: 0% is about no effect; the text of the record puts the active cut at 80%
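TRPML1-DL cells, Tet-induced overnight (~16 h, 37 degrees C), loaded 45-90 min at room temperature with Ca8 no-wash calcium dye plus quencher. FDSS fluorescence: 10 s baseline, compound pin-transfer, 110 s agonist read, then EC80 54-4 (4uM final) and 110 s antagonist read.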
Six1-Eya2 inh = Six1/Eya2 interaction inhibition; AID 651725; 360,000 compounds, 0.56% hits; AlphaScreen GST-Six1/His-Eya2 binding, biochemical; hits give low values; control for the full effect not named in the record; activity change, % (no concentration beside the values); in the data active = activity change below about -65%; inconclusive = about -30% to -65%; inactive = above about -30%; also: % is scaled to controls: 0 for no effect and ±100 for the full control effect
Target sequence (O00167 whole entry, looked up): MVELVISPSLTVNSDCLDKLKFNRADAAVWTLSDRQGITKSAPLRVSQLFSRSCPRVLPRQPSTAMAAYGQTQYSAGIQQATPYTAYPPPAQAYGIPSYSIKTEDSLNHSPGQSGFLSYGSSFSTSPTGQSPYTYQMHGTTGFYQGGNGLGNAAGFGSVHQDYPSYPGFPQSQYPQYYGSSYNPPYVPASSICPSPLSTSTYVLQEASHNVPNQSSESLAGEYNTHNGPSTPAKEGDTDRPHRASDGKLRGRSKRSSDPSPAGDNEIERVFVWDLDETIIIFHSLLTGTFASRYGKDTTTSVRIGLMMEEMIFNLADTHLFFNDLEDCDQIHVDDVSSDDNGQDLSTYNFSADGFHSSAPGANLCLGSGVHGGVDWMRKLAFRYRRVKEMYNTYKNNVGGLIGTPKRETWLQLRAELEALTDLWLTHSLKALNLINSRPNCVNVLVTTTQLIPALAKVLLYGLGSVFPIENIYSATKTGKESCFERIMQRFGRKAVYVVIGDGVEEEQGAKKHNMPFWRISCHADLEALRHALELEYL
Target sequence (Q15475 whole entry, looked up): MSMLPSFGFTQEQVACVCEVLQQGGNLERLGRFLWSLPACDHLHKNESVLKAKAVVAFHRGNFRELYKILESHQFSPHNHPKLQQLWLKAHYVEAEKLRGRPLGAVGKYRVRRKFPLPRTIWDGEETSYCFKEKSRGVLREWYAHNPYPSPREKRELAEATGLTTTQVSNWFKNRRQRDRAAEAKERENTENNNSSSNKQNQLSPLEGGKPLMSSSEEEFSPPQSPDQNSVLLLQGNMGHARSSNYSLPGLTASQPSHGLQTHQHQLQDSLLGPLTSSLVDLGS
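Homogeneous AlphaScreen proximity assay pairing GST-Six1 with His-tagged Eya2 (added as 5X mix: 250 nM and 500 nM) in 50 mM Tris pH 8.0, 300 mM NaCl, 1 mM TCEP. Glutathione donor and nickel acceptor beads; 1 h, 37 °C, dark.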
Active calls of the source: *; ? = inconclusive; . = no result given; [ ] = remark or other dose.

No.	structure	TRPML1 inh	PINK1 expr mod	CtBP-E1A inh	D2 ag	TRPML1 agonist	Six1-Eya2 inh
1	COc1ccc2c(c1)nc(NCCO)n2C	-10.2	0.7%	0.1	-2.6	0.2	3.4
2	CC(=O)C1=C(O)C(=O)N(c2ccc(O)cc2)C1c1ccccc1 (centres undefined)	-21.1	1.8%	1.0	-2.0	-0.5	-0.6
3	CCOC(=O)c1cc(-c2cccnc2)nn1-c1ccccn1	-24.1	-2.7%	0.0	3.9	0.0	13.3
4	COc1ccc(C2NC3=C(CCC3)C3(C#N)C(OC)(OC)N=C(N)C23C#N)cc1 (centres undefined)	9.1	0.6%	-15.5	0.7	1.2	-10.5
5	N#CCCN/N=C(/Cc1nc2ccccc2[nH]1)c1cccc(Cl)c1	-10.6	-0.6%	-2.1	-5.3	-0.1	-6.6
6	Cc1ccccc1NS(=O)(=O)c1ccc(NC(=O)N2CCCCC2)cc1	13.3	?	8.7	0.3	-0.2	-0.3
7	Cc1ccc(OCCn2c(CNc3ccccc3C)nc3ccccc32)cc1	15.8	8.3%	.	.	2.4	.
8	CCNc1nc(N)c(C(=C(C#N)C#N)c2ccccc2)s1	5.6	-1.3%	?	-2.6	-1.5	-22.2
9	COc1ccc2c(=O)cc(C(F)(F)C(F)(F)F)oc2c1	0.8	2.4%[38.3 µM]	4.4	-1.5	0.6	1.0
10	COc1ccc(C(=O)O)cc1S(=O)(=O)Nc1ccc(Oc2ccccc2)cc1	19.4	2.2%	4.1	5.6	1.7	0.2
11	Cc1cc2n(n1)C(c1ccccc1)Nc1ccccc1-2 (centres undefined)	-13.4	-0.1%	-10.5	-0.1	0.9	-2.2
12	COc1ccccc1C(=O)Nc1ccc(-c2nc3cc(C)cc(C)c3o2)cc1	18.0	3.4%	.	.	2.1	.
13	O=c1cc(-c2ccccc2)nc(SCCOc2ccccc2Cl)[nH]1	-6.1	15.2%	.	1.8	0.9	24.0
14	O=C(CSc1nc(O)c(Cc2ccccc2)c(=O)[nH]1)Nc1nnc(SCc2ccccc2)s1	-6.2	-0.2%	?	-1.3	-0.2	-1.2
15	COc1cccc(OCC(Cn2c(C)nc3ccccc32)OC(C)=O)c1 (centres undefined)	5.0	0.5%	2.8	6.1	-0.9	2.4
16	COc1cc(-c2nnc(SCC(=O)N3c4ccccc4Sc4ccccc43)o2)cc(OC)c1OC	4.5	-1.3%	-1.1	0.1	1.1	-16.3
17	CCOC(=O)COc1ccccc1C1Nc2ccccc2C(=O)N1c1cccc(Cl)c1 (centres undefined)	-2.2	0.9%[38.3 µM]	21.1	-1.1	1.0	-8.1
18	C[C@H]1C(c2ccc(F)cc2)=NN(c2ccccc2)[C@@H]1CO	7.3	1.3%	25.1	2.8	-0.5	26.6
19	Cn1cc(C(=O)NC2CCCCC2)c(=O)c2cc(S(=O)(=O)N3CCOCC3)ccc21	-6.9	0.9%	0.9	-0.5	-0.3	6.3
20	O=C1N(Cc2cccc(Cl)c2)C[C@@H]2C[C@@H](c3cccc4ncccc34)N3CCC[C@@]123	27.5	-0.2%	7.0	3.2	0.9	-6.3
21	COc1ccc(CC(=O)NC(=S)Nc2cccc(C)c2)cc1	20.2	-0.1%	5.4	-9.7	9.5	-4.7
22	CCOc1ccc(-c2nc(C(N)=O)c3c(n2)n(-c2ccc4c(c2)OCO4)c(=O)n3CC)cc1	17.8	0.1%	.	.	-1.0	.
23	O=C(c1ccc(CNc2c(N3CCCC3)c(=O)c2=O)cc1)N1CCN(C2CCCCC2)CC1	17.7	0.2%	-0.1	8.8	-0.8	-18.7
24	Cc1ccc(C(=O)Oc2ccccc2C(=O)N2CCOCC2)cc1	9.6	-2.3%[38.3 µM]	28.1	0.6	0.8	-1.7
25	CCn1cc(/C=N/NC(=O)c2cc3c(ccc4ccccc43)o2)c2ccccc21	3.9	8.5%	-17.0	0.3	-1.6	7.6
26	Cc1cc(C)c(S(=O)(=O)Nc2ccc3oc(C)c(C(=O)OC(C)C)c3c2)cc1C	24.0	?	.	.	0.5	.
27	CCc1ccccc1N(C)S(=O)(=O)c1ccc2[nH]cc(C(=O)O)c(=O)c2c1	9.9	-0.8%	6.9	1.1	-0.2	-4.0
28	O=C(Nc1ccc(Br)cc1F)N1CC=C(c2c[nH]c3ccccc23)CC1	31.5	6.6%	.	.	0.7	.
29	Cc1ccccc1NC(=O)C(=O)NCCc1c[nH]c2ccccc12	9.5	2.2%	-15.8	-3.8	0.0	-16.8
30	O=C(NC(C(=O)NCCN1CCOCC1)C12CC3CC(CC(C3)C1)C2)C1CCCCC1 (centres undefined)	-5.1	-3.6%	1.3	-2.1	-0.4	-0.5
31	O=C(CCC(=O)NCc1ccccc1)NCc1ccccc1	.	-0.5%	.	1.7	.	0.4
32	CCOC(=O)CC(S(=O)(=O)c1ccccc1)S(=O)(=O)c1ccccc1	-9.7	6.3%	-6.1	-11.3	2.1	2.1
33	CCOc1cc(C(=O)Nc2ncn[nH]2)cc(OCC)c1OCC	-9.4	2.5%	0.0	0.1	-0.7	-3.3
34	Cc1oc(-c2ccc(Cl)cc2)nc1CN1CCCC(C(=O)NCCc2ccccc2)C1 (centres undefined)	37.8	0.5%	.	.	1.3	.
35	CCc1ccc(-n2c(=S)sc3c(=O)n(-c4ccccc4)c(SCC(=O)O)nc32)cc1	10.3	1.1%	-1.5	3.0	0.9	-8.0
36	COc1ccc2c(c1OC)C(=O)N1C2SC[C@H]1C(=O)NC1CC(C)(C)NC(C)(C)C1 (some centres undefined)	2.6	-0.8%	1.8	-1.1	-0.5	6.5

Continued, starting with the last 4 of the part before.
No.	structure	TRPML1 inh	PINK1 expr mod	CtBP-E1A inh	D2 ag	TRPML1 agonist	Six1-Eya2 inh
33	CCOc1cc(C(=O)Nc2ncn[nH]2)cc(OCC)c1OCC	-9.4	2.5%	0.0	0.1	-0.7	-3.3
34	Cc1oc(-c2ccc(Cl)cc2)nc1CN1CCCC(C(=O)NCCc2ccccc2)C1 (centres undefined)	37.8	0.5%	.	.	1.3	.
35	CCc1ccc(-n2c(=S)sc3c(=O)n(-c4ccccc4)c(SCC(=O)O)nc32)cc1	10.3	1.1%	-1.5	3.0	0.9	-8.0
36	COc1ccc2c(c1OC)C(=O)N1C2SC[C@H]1C(=O)NC1CC(C)(C)NC(C)(C)C1 (some centres undefined)	2.6	-0.8%	1.8	-1.1	-0.5	6.5
37	O=[N+]([O-])CC(c1ccc(F)cc1)c1c[nH]c2ccccc12 (centres undefined)	14.3	6.3%	-2.8	-1.1	0.0	-6.7
38	O=C(Nc1ccc(N2CCOCC2)c(Cl)c1)c1cc(F)c(F)cc1Cl	3.9	3.2%	3.3	-0.6	-1.2	1.4
39	Cc1nc2ccccc2c(=O)n1NC(=O)c1cncc(Br)c1	-6.2	-0.8%	5.1	8.5	0.6	0.4
40	O=C(O)C1CCCN(S(=O)(=O)c2ccc(F)cc2)C1 (centres undefined)	4.2	0.9%	-1.6	0.3	-0.4	11.0
41	CC1CCC2(CC1)NC(=O)N(CC(=O)N1CCOCC1)C2=O (centres undefined)	11.8	1.7%	2.7	5.7	-0.6	0.4
42	CC(=O)c1ccc(N2CCN(C(=O)c3cc4c(s3)-c3ccccc3OC4)CC2)cc1	-18.4	-0.9%	.	.	1.2	.
43	O=C(CCN1CCc2ccccc2C(O)(c2ccccc2)C1)c1ccc2c(c1)OCCO2 (centres undefined)	11.5	-1.3%	4.2	-3.9	6.0	-17.7
44	Cc1c(C(=O)N2CCN(C3CCS(=O)(=O)C3)CC2)oc2ccc(Cl)cc12 (centres undefined)	4.6	-1.4%	8.1	-4.5	0.4	-0.6
45	CC(=O)Nc1cccc(NC(=O)CCn2cnc3cc(C)c(C)cc32)c1	-4.9	-0.6%	4.4	-1.9	0.5	-3.0
46	O=C1c2cccnc2C(=O)N1Cc1ccc(S(=O)(=O)NCc2ccco2)s1	2.6	1.9%	-18.8	0.1	-0.7	-7.8
47	COc1ccccc1Nc1nc(NCC2CCCO2)c2ccccc2n1 (centres undefined)	7.1	?	2.7	-1.2	-0.5	-1.8
48	CCS(=O)(=O)C(=C1NCCO1)S(=O)(=O)CC	-8.5	2.5%[38.3 µM]	2.7	-1.9	0.4	3.2
49	Cc1cc(C)n2nc(NCc3ccccc3Cl)nc2n1	4.0	-1.1%	.	.	-0.9	.
50	COc1ccc(NC(=O)/C(Cl)=C(/Cl)S(=O)Cc2ccc(Cl)cc2)cn1 (centres undefined)	-1.1	-1.6%	-4.6	-7.4	1.3	-26.0
51	CCOC(=O)/C=C1\SCC(=O)N1CC(=O)c1ccc[nH]1	-8.0	-0.2%	3.1	-1.2	-0.1	-2.6
52	CCOc1ccc(C(=O)OCC(=O)Nc2cccnc2Cl)cc1OCC	-4.4	2.4%	-4.8	1.5	3.9	-3.3
53	Cc1ccc(S(=O)(=O)N2C[C@H]3N(C(=O)OC(C)C)N(C(=O)OC(C)C)C[C@H](OC(=O)NCc4ccco4)[C@@]3(O)C2)cc1	-7.7	1.1%	1.0	-8.1	-0.6	2.4
54	COc1ccc(N(C(C)C(=O)NC2CCCCCC2)S(C)(=O)=O)cc1 (centres undefined)	20.0	1.1%	-2.1	-8.1	4.1	9.1
55	O=C(Nc1nnc(-c2ccncc2)s1)Nc1ccccc1F	18.8	-1.0%	-14.6	2.7	0.6	3.0
56	Cc1nn(-c2ccccc2)c(Cl)c1C(=O)NCc1cccs1	18.2	0.1%	0.9	-1.1	-0.6	0.6
57	COc1cc(C(=S)N2CCOCC2)cc(OC)c1OC(=O)c1ccc([N+](=O)[O-])cc1[N+](=O)[O-]	5.6	1.9%	?	48.0*	-0.4	-26.1
58	COc1ccccc1N1CCN(CC(=O)NCC2CCCO2)CC1 (centres undefined)	8.9	2.4%	-5.1	-2.3	-0.4	15.4
59	O=C(N(c1ccccn1)c1ccccn1)C12CC3CC(CC(C3)C1)C2	-9.0	1.5%	16.0	-1.0	-0.6	5.7
60	O=C(Nc1cc(S(=O)(=O)N2CCOCC2)ccc1N1CCOCC1)c1cc(=O)[nH]c2ccccc12	27.6	0.2%	0.1	0.9	-0.3	1.9
61	COC(=O)C1=CN(C(C)c2ccccc2)C=C(C(=O)OC)C1c1cc(OC)c(OC)c(OC)c1 (centres undefined)	-17.6	3.8%	24.5	-2.4	1.7	3.9
62	CCNS(=O)(=O)c1ccc(CCC(=O)N2CCN(c3cc(Cl)ccc3C)CC2)cc1	-0.2	3.5%	-1.7	13.8	3.0	5.4
63	COCCSc1nnc(NC(=O)C2CCN(C(=O)c3ccco3)CC2)s1	-11.8	-3.0%	2.6	-1.8	-0.1	9.0
64	CSCCC(NC(=O)COc1ccccc1)C(=O)NCCOc1ccccc1 (centres undefined)	11.1	-0.6%	.	-0.9	-0.6	-1.3
65	Cc1ccc(S(=O)(=O)Nc2cc(C(=O)NCCN(C)C)ccc2N2CCCC2)cc1	28.4	4.9%	-9.7	-1.3	0.2	-8.0
